Compound activity: PubChem, ICCB-Longwood Screening Facility, Harvard Medical School
GIV-Gai inh = inhibitors of GIV peptide binding to Galpha-i3, primary screen, biochemical, fluorescence polarization, FITC-GIV GBA peptide, rat Galphai3. Guanine nucleotide-binding protein G(i) subunit alpha-3 (Rattus norvegicus), P08753. 90 min; stronger effect = lower value; scaled: aluminum fluoride 0%, vehicle 100%. percent of control (FP), % (no concentration beside the values). actives 0.42% (n = 210,000). AID 1224905, 2016;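 active = replicate mean at 85% of control or lower, very high polarization wells dropped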;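 also: wells of about 15 µL received 100 nL stock; the first replicate is given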
Target sequence (P08753 whole entry, looked up): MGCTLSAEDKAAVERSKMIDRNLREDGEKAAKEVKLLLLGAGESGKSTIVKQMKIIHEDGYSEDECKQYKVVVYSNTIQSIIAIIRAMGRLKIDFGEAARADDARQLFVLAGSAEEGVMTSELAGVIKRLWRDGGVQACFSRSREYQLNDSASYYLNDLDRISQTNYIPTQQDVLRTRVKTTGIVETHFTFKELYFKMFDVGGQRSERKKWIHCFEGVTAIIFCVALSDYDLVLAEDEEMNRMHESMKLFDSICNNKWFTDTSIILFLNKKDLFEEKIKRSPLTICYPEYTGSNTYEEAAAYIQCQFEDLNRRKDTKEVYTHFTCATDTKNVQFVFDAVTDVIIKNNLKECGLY
HCMV NEC inh = inhibitors of HCMV UL50-UL53 interaction, biochemical, HTRF | HCMV UL50-UL53 nuclear egress complex (human cytomegalovirus) | normalized percent inhibition | inhibition, % (test concentration not listed) | actives 0.15% (n = 190,000);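 active = both replicates at 50% or more, plus weaker picks with an unusually low signal ratio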;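 also: stock transfer was 100 nL into about 20 µL; 0% = negative control wells and 100% = wells with untagged competitor protein; inactives centre near -12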
Sa growth inh = S. aureus growth inhibition at 42 and 30 °C, primary screen, LtaS inhibitor project, RN4220, two temperatures; OD600, 20 h, 42 °C; stronger effect = lower value; relative growth, % (no concentration beside the values); actives 0.53% (n = 170,000); AID 720641, 2013;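 active = growth at 42 °C up to 50% and 20 or more points under that at 30 °C, or under 10% at both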;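 also: 300 nL library stock went into each well; scaled to the means of positive and negative controls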
Sa growth inh second temp = further read-out of Sa growth inh, marked with its call; relative growth, %; measured here: growth at 30 °C;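 optical density after 20 h as mean of two plates; 100% = untreated growth and lower means inhibition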
An asterisk follows results filed as active; x = not tested or not shown; & = joins results of further samples.

Every second line gives: GIV-Gai inh | HCMV NEC inh | Sa growth inh | Sa growth inh second temp
Cc1ccccc1-c1nc(SCC(=O)NCc2ccc(F)cc2)c2c(=O)n(C)c(=O)n(C)c2n1
    101 | x | 96 | 91
Cc1cc(N2CCC(C(=O)N3CCOCC3)CC2)n2nc(C)c(-c3ccc(Cl)cc3)c2n1
    102 | x | 90 | 87
COc1ccc(C(=O)N=C2NC(=O)C(C)S2)cc1 (stereo unspecified)
    104 | 10 | 94 | 88
CCc1ccccc1NC(=O)C1CCN(S(=O)(=O)c2ccc3c(c2)CC(C)N3C(C)=O)CC1 (stereo unspecified)
    110 | -16 | x | x
COc1cccc(Cc2nnc(-c3c(-c4ccccc4)noc3C)o2)c1
    105 | -32 | 103 | 83
O=c1[nH]c2ccccc2nc1-c1ccc(Cl)cc1
    102 | 12 | 74 | 80
CCc1nnc(NC(=O)/C=C/c2cccs2)s1
    x | -15 | 106 | 86
CC1=C(C(=O)OCCOc2ccccc2)C(c2cccc(O)c2)C2=C(CC(c3ccccc3)CC2=O)N1 (stereo unspecified)
    102 | 0 | x | x
CCNc1nc(NCC)nc(NNC(=S)Nc2ccc(OCC)cc2)n1
    100 | -28 | 99 | 86
FC(F)(F)c1cc(-c2nnc(N3CCOCC3)o2)cc(C(F)(F)F)c1
    102 | -22 | 91 | 91
CCOC(=O)c1ccc(CN(Cc2ccc(Cl)cc2Cl)S(=O)(=O)c2cccc(Cl)c2)cc1
    104 | x | 105 | 90
CCn1c2ccccc2c2cc(CN3CCN(Cc4cc(OC)c(O)c(OC)c4)CC3)ccc21
    106 | -39 | 115 | 81
CCN(c1cccc(C)c1)S(=O)(=O)c1ccc2c(c1)SC(C)C(=O)N2 (stereo unspecified)
    101 | x | 86 | 75
CC(C)N1CC(c2nc3ccccc3n2C)CC1=O (stereo unspecified)
    103 | -26 | x | x
c1ccc2c(c1)nc(Nc1ccc(N3CCCCC3)cc1)c1nncn12
    97 | -25 | 109 | 92
O=C1CC2CCC(CN1)N2CC(=O)N1c2ccccc2Sc2ccc(C(F)(F)F)cc21 (stereo unspecified)
    99 | 0 | 80 | 77
O=C(N/N=C1/CC(c2ccccc2)Oc2ccccc21)C1CC1 (stereo unspecified)
    x | -3 | 99 | 93
Cc1cc2nc(SCC(=O)NN)[nH]c2cc1C
    x | -4 | 107 | 106
CSc1c(C#N)c(N)nc(SCC(=O)c2ccccc2)c1C#N
    103 | -4 | 106 | 92
Cc1cc(C)c(C#N)c(SCCN2C(=O)c3ccccc3C2=O)n1
    x | 5 | 94 | 92
Cc1cc(C(=O)O/N=C(\N)c2ccccc2)nn1C(C)(C)C
    101 | -14 | 98 | 89
COc1nc(-c2ccc(C)cc2)ccc1-c1noc(-c2ccc(C(C)(C)C)cc2)n1
    105 | -16 | 85 | 90
CC(=O)Nc1nonc1-c1nnc(SCc2ccccc2F)n1C
    102 | -5 | 102 | 92
COCCCNC(=O)CN1C(=O)c2c(c3ccccc3n2C)C1c1ccc(OC)cc1 (stereo unspecified)
    106 | x | 100 | 90
CCn1c(=O)c2sccc2n2c(CCC(=O)NCCc3ccc(S(N)(=O)=O)cc3)nnc12
    98 | -20 | x | x
CCc1noc2nc(C)nc(Nc3ccc(F)cc3)c12
    100 | -25 | x | x
CN1CCN(S(=O)(=O)c2ccc(SCC(=O)NC3CCCCC3)cc2)CC1
    101 | -4 | 95 | 100
CC(=O)Nc1cccc(NC(=O)CCn2cnc3cc(C)c(C)cc32)c1
    100 | -21 | 106 | 94
Cc1ccc(-n2nc3c(=O)n(C(C)C(=O)O)nc(C)c3c2C)cc1 (stereo unspecified)
    100 | -14 | 113 | 84
CCOC(=O)c1nc2c(o1)NC(N)=C(C#N)C2c1ccc(Cl)cc1 (stereo unspecified)
    x | -8 | 107 | 86

Next part
Every second line gives: GIV-Gai inh | HCMV NEC inh | Sa growth inh | Sa growth inh second temp
O=C(Nc1ccc2c(c1)OCCO2)C1CCCN(c2nc3cccnc3s2)C1 (stereo unspecified)
    107 | -20 | x | x
NC(=O)Nc1ccc(F)cc1F
    110 | -7 | 98 | 90
CC(=O)Nc1ccc(F)cc1NC=C(C#N)C#N
    108 | -2 | 85 | 79
O=C(Nc1ccc(F)cc1F)c1cncc(NS(=O)(=O)c2ccc(Br)cc2)c1
    106 | -22 | x | x
Cc1ccc(-c2cc(Cc3ccccc3)c(=O)[nH]n2)cc1
    98 | -39 | 108 | 87
Cc1nc2cc(-c3ccccc3)nn2c(C)c1CCC(=O)NCc1ccccc1
    117 | -2 | 68 | 101
CCOC(=O)c1sc(NC(=O)c2cc(CC)on2)c(C(=O)OCC)c1C
    105&102 | -14&-13 | 93 | 90
COc1ccc(OC)c(NC(=O)COc2ccccc2)c1
    x | -5 | 112 | 91
Cc1cc(-c2csc(-c3ccc(O)cc3)n2)c(C)n1C1CC1
    x | 4 | 83 | 61
CC(C)NC(=O)Cn1cnc2ccccc2c1=O
    x | 8 | 108 | 99
CCN(CCN(C)C)c1ncc(NS(=O)(=O)CC)cc1C(=O)O
    71* | -24 | x | x
Cc1[nH]c2ccc(Br)cc2c1CCNC(=O)c1cc2ccccc2oc1=O
    105 | 10 | 86 | 86
COc1ccccc1CNC(=O)c1c(O)nc2c(C)cccn2c1=O
    96 | -7 | 88 | 93
CCC1CN(S(=O)(=O)c2cc(-c3cc(C)no3)ccc2OC)c2cc(Cl)ccc2O1 (stereo unspecified)
    102 | x | 98 | 99
Cc1ccc(N2CC(NC(=O)Cc3ccc(F)cc3)CC2=O)cc1C (stereo unspecified)
    100 | x | 111 | 88
CCc1cccc(NC(=S)N(CCN(C)C)C2CCN(C(C)C)CC2)c1
    99 | -23 | 90 | 92
C=C1c2ccccc2N=C(SCC(=O)Nc2ccc(F)cc2F)N1C
    x | -13 | 79 | 85
Cn1c(=O)c2sccc2n2c(CCC(=O)NCCC3=CCCCC3)nnc12
    98 | -9 | x | x
O=C(/C=C/c1ccco1)Nc1ccc2c(c1)C(=O)N(c1ccccc1)C2=O
    104 | -12 | 116 | 103
O=C(CCc1nc(-c2cc3ccccc3[nH]c2=O)no1)N1CCCC1
    102 | -80 | x | x
CCOc1ccccc1CNC(C)(C)CO
    99 | 2 | 104 | 82
CCOC(=O)c1ccc(NC(=O)c2ccc(=O)n(Cc3cccc(C)c3)c2)cc1
    103 | x | 97 | 98
CCOc1ccc(/C=C/C(=O)Nc2sc3c(c2C(=O)OC)CCC3)cc1
    104 | -4 | 97 | 98
Cc1cccc(N2CCN(C(=O)CN3C(=O)CSc4ncccc43)CC2C)c1 (stereo unspecified)
    96 | -13 | x | x
Cc1c(O)ccc2c(=O)c(-c3ccc4ccccc4n3)coc12
    x | -14 | 121 | 83
Cc1c(Cl)ccc2sc(N3CCN(C(=O)CS(=O)(=O)c4ccccc4)CC3)nc12
    98 | x | 108 | 96
COC(=O)C1=C(N)OC2=C(C(=O)CC(C)(C)C2)C1c1cccc(Br)c1 (stereo unspecified)
    108 | -14 | x | x
CCOC(=O)c1ccc(NC(=O)CSc2nc3ccccc3c(=O)n2CCC(=O)NC2CCCCC2)cc1
    100 | x | 118 | 93
CCCCn1nc(C(=O)N/N=C/c2ccccc2OCC(=O)O)c2ccccc2c1=O
    x | -41 | 105 | 88
CC(C)Cc1cc(C(=O)Nc2cccnc2)no1
    105 | x | 93 | 72

Record cards, from the list above:
`c1ccc2c(c1)nc(Nc1ccc(N3CCCCC3)cc1)c1nncn12` in the list: GIV-Gai inh: 97; HCMV NEC inh: -25; Sa growth inh: 109; Sa growth inh second temp: 92
`O=C(N/N=C1/CC(c2ccccc2)Oc2ccccc21)C1CC1` (stereo unspecified) in the list: GIV-Gai inh: x; HCMV NEC inh: -3; Sa growth inh: 99; Sa growth inh second temp: 93
`Cc1ccc(N2CC(NC(=O)Cc3ccc(F)cc3)CC2=O)cc1C` (stereo unspecified) in the list: GIV-Gai inh: 100; HCMV NEC inh: x; Sa growth inh: 111; Sa growth inh second temp: 88

Carrying on:
Every second line gives: GIV-Gai inh | HCMV NEC inh | Sa growth inh | Sa growth inh second temp
O=C(NCCN1CCc2ccccc2C1)Nc1ccc(F)cc1F
    105 | -22 | x | x
O=C(CCn1cccn1)Nc1ccc(Br)cc1F
    95 | x | 79 | 88
CCOc1ccccc1NC(=O)COc1ccc(S(=O)(=O)NC2CCCCC2)cc1
    106 | -23 | 104 | 86
COC(=O)c1ccc2c(=O)n(CCCCCC(=O)N3CCN(c4ccc(OC)cc4)CC3)c(=O)[nH]c2c1
    101 | x | 103 | 87
CC(C)Cn1c(=O)c2sccc2n2c(CCC(=O)NC3CCC(C)CC3)nnc12 (stereo unspecified)
    98 | 7 | x | x
c1ccc2oc(NC3=NCN(CCCN4CCOCC4)CN3)nc2c1
    101 | -24 | 97 | 86
CN(Cc1ccccc1)Cc1ccccc1F
    x | -5 | 101 | 88
CC(C)Cn1c(=O)c2sccc2n2c(=S)sc(-c3ccccc3)c12
    117 | x | 102 | 88
CCOC(=O)c1ccc(Nc2nc(-c3cc4cc(Br)ccc4oc3=O)cs2)cc1
    106 | -6 | x | x
O=C(NC1CCCCCCC1)c1ccc(NC2=NC3CS(=O)(=O)CC3S2)cc1 (stereo unspecified)
    101 | -9 | 106 | 96
COc1ccc2c(Cl)c(C(=O)Oc3ccccc3Cl)sc2c1
    x | 0 | 122 | 107
O=C1C(=O)N(C2CCN(S(=O)(=O)c3ccc(Cl)cc3)CC2)CCN1Cc1ccc(F)cc1
    96 | -14 | x | x
CCC(C)C(=O)O[C@H]1C[C@H](O)C=C2C=C[C@H](C)[C@H](CC[C@@H](O)C[C@@H](O)CC(=O)O)C21 (stereo partly specified)
    x | -37 | 88 | 91
CCCNS(=O)(=O)c1ccc(OCC(=O)N2CCCCC2)cc1
    105 | 2 | 112 | 87
CCOC(=O)c1cnc2c(ccc3ccccc32)c1Nc1ccc(N(C)C)cc1
    101 | -13 | 113 | 86
Cc1ccccc1NC(=O)CCC(=O)Nc1ccccc1C
    x | -6 | 97 | 90
O=C(NC1CCCCC1)c1cccc(N2CCCS2(=O)=O)c1
    105 | -18 | x | x
CCCc1cc(Sc2ccccc2NC(=O)Nc2ccc(F)c(Cl)c2)n2ncnc2n1
    103 | -31 | x | x
CCOc1ccccc1NC(=O)C1CCCN(S(=O)(=O)c2cccs2)C1 (stereo unspecified)
    111 | -9 | 104 | 88
CCN1CCN(C(=O)c2sc3ncnc(N4CCN(c5ccccn5)CC4)c3c2C)CC1
    114 | 21 | x | x
Cc1ccccc1-c1nn2c(=O)cc(N3CCN(C(=O)Nc4cccc(Cl)c4)CC3)nc2s1
    103 | 19 | x | x
Cc1ccc(Cl)cc1N1CCN(C(=O)c2ccc3noc(-c4ccc(F)cc4)c3c2)CC1
    100 | -27 | x | x
CC1(C)Cc2nc3sc4c(=O)n(CC(=O)NCc5ccco5)cnc4c3cc2CO1
    97 | 6 | 89 | 85
CC(=O)N(C)c1ccc(NC(=O)c2sc3ccccc3c2Cl)cc1
    x | -32 | 97 | 79
CCOC(=O)c1cccc(N(C(=O)Cn2nnc3ccccc32)C(C(=O)NCC2CCCO2)c2nc3ccccc3n2C)c1 (stereo unspecified)
    101 | -15 | 82 | 96
CC(NC(=O)COc1ncnc2ccccc12)C1CC2CCC1C2 (stereo unspecified)
    x | -2 | 108 | 95
CCN(c1cccc(C)c1)S(=O)(=O)c1ccc2c(c1)C(=C(C)C)C(=O)N2
    113 | -18 | 113 | 89
N#CC(=C1SCCCCS1)S(=O)(=O)c1ccc(Cl)cc1
    102 | -26 | 97 | 88
CC(C)NC(=O)CCCc1nc(-c2ccccc2)no1
    101 | x | 96 | 80
COC(=O)c1cc(-c2cocc2C=C(C#N)C#N)ccc1Cl
    52* | -9 | 95 | 88

(list continues)
Every second line gives: GIV-Gai inh | HCMV NEC inh | Sa growth inh | Sa growth inh second temp
CCCc1cc(=O)[nH]c(/N=C(\N)Nc2cccc(C(F)(F)F)c2)n1
    96 | 1 | 87 | 96
O=C(NCCNc1ccc(C(F)(F)F)cn1)Nc1ccccc1Cl
    106 | -10 | 87 | 92
COc1ccc(CC(=O)NCCS(=O)(=O)N2CCN(c3ccc(F)cc3)CC2)cc1OC
    105 | x | 101 | 88
CC(C)=CCOc1ccc2c3c(c(=O)oc2c1)CCC3
    99 | -32 | 80 | 76
Cc1ccc(S(=O)(=O)NC2=NCCC2)cc1
    x | 12 | 86 | 89
CN(C)CCNc1nc(S(=O)(=O)c2ccccc2)c(Cl)s1
    x | -12 | 97 | 94
O=C(O)c1ccccc1Nc1ccnc(N2CCCCC2)n1
    x | -33 | 79 | 80

Not a hit list, and some 0.83% of all compounds hit somewhere here.
